High-throughput results from PubChem BioAssay.
EPAC2 agonist = activates human EPAC2 exchange factor | 360,000 tested, 0.079% active | Potency, µM (top dose mostly 154 µM), for the others: top-dose activation, hits mostly activators | EPAC2 activation, biochemical qHTS; response scale: 100% = 6.5 mM cAMP response | Q8WZA2 | AID 720711; also: potency is read from the fitted curve at half-maximal effect; nearly all actives have a fitted effect of over 50% in size
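Each well held 100 nM EPAC2, 250 nM RAP1B-BODIPY-GDP and 50 uM GDP. Fluorescence, read at 5-min intervals to 30 min, was referenced to a 6.5 mM cAMP positive control.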
EPAC2 antag = EPAC2 (human) antagonism; Potency, µM (doses to about 114 µM), inactives show top-dose activity, negative = inhibition, most hits filed as inhibitors; AID 720708; 360,000 tested, 0.18% active; EPAC2 GEF exchange of Rap1B-BODIPY-GDP, fluorescence; also: potency is read from the fitted curve at half-maximal effect; % is scaled to controls: 0 for no effect and ±100 for the full control effect; nearly all actives have a fitted effect of over 45% in size; many of its hits are not listed in these tables
DRD3 agonist = agonists of human D3 dopamine receptor; P35462; D3R DiscoveRx beta-arrestin cells, luminescence, 90 min; max activation, %; 410,000 tested, 0.58% active; in the data active = max activation above about 30%; also: 0% is about no effect; mostly tested at two doses, the higher about 12 µM
Target sequence (P35462 whole entry, looked up): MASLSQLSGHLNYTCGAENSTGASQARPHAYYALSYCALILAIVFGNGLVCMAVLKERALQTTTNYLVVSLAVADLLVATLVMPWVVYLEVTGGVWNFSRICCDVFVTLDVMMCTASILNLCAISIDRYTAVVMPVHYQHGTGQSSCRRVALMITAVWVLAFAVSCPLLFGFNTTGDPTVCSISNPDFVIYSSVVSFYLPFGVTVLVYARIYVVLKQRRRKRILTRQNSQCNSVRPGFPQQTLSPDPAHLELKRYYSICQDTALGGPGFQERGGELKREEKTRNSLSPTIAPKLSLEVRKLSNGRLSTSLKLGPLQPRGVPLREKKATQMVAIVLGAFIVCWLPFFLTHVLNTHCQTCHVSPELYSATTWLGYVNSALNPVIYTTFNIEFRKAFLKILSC
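Agonist mode: compounds and dopamine controls were applied to plated cells for 90 min at 37 degrees C after an overnight attachment at 1500 cells/well. Luminescent read-out followed 30 - 60 minutes at room temperature with DiscoveRx detection reagent.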
Akt phos inh = inhibitors of Akt phosphorylation | Neuro2A IGF-stimulated pAkt S473 HTRF, 20 min; stronger effect = lower value | activity change, % for hits at 50 µM | 360,000 tested, 0.32% active; in the data active = activity change below about -80%; inconclusive = mostly about -51% to -80%; also: % is scaled to controls: 0 for no effect and ±100 for the full control effect
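Neuro2A cells in DMEM with 0.5% FBS, overnight at 37 deg C, given compound at single 50 µM final, then IGF (6 nM final) for 20 min at 37 deg C. Lysed; phospho-Akt Ser473 by HTRF after 24 h, 665/615 ratio.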
MmCpn inh = blocks the Methanococcus maripaludis chaperonin Mm-Cpn | Potency, µM (series often up to 76.9 µM), inactives show at the top dose activity, negative = inhibition, usual class: inhibitors | 330,000 tested, 0.031% active | purified Mm-Cpn ATPase, ADP Transcreener TR-FRET; also: potency is read from the fitted curve at half-maximal effect; % is scaled to controls: 0 for no effect and ±100 for the full control effect; nearly all actives have a fitted effect of over 80% in size
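Purified archaeal Mm-CPN (25nM final) preincubated 10 min at 37degC with compound, then 10uM ATP for 30 min at 37degC; ADP measured by HTRF Transcreener TR-FRET; buffer 30 mM TRIS pH 7.4, 100mM KCl, 5mM MgCl2, 1mM DTT.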
D3 antag = D3 dopamine receptor (human) antagonism; P35462; D3R cells, DiscoveRx beta-arrestin luminescence, antagonist mode; stronger effect = lower value; max response, negative = inhibition, %; 360,000 tested, 2.5% active; in the data active = max response below about -50%; inconclusive = no clear call, values can overlap the other calls; also: % is scaled to controls: 0 for no effect and ±100 for the full control effect; mostly tested at two doses, the higher about 12 µM
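Cells expressing the human receptor were seeded at 1500 cells/well, incubated overnight at 37 degrees C in 5% CO2, then exposed to library compounds with dopamine controls for 90 minutes at 37 degrees C before luminescent detection.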
CCT modulator = changes cytosolic chaperonin activity. purified chaperonin ATPase assay, HTRF ADP detection, 30 min. activity change, % (test concentration not listed), hits read low. 360,000 tested, 0.3% active. AID 651819; in the data active = activity change below about -30%; also: % is scaled to controls: 0 for no effect and ±100 for the full control effect
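Nucleotide hydrolysis assay: TRiC at 20–40 nM final (set by batch activity) with 10 uM ATP, 30 min at 37 °C, in presence of 76 uM compound. Detection by competitive ADP HTRF, 30 min ambient.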
* hit, by the source's call; i = inactive; ? = inconclusive; · = not tested or not shown; [ ] = remark or other dose. Unless noted, calls follow the shape of the dose curve; as a rule, active = well fitted curve in the direction sought with a large enough effect; inconclusive = small, poorly fitted or top-dose-only effect, or another doubt; inactive = no such curve, though single readings can be large; an effect the other way counts as inactive or inconclusive. Only part of the results is shown; count on the stated rates, not on these rows.

SMILES	EPAC2 agonist	EPAC2 antag	DRD3 agonist	Akt phos inh	MmCpn inh	D3 antag	CCT modulator
O=C(NC(=S)Nc1ncc(Br)cc1Br)c1ccccc1	3%	-15%	-7	i	-2%	11	-4.5
Cc1cc(C)nc(/N=C(\N)N2CCCCCC2)n1	-4%	9%	-12	i	2%	-16	-2.8
O=C1NC2(CCC3(CC2)OCCO3)NN1c1ccc(Cl)cc1	7%	-5%	0	i	-1%	0	-0.4
COc1ccccc1NC(=S)N1CCc2cc(OC)c(OC)cc2C1	6%	0%	1	i	-6%	-22	-5.2
O=C(NN1CC(C(=O)OCc2ccccc2F)CC1=O)c1ccccc1 (configuration not stated)	2%	1%	7	i	?	8	-1.8
O=C(CN1CCN(C(=O)c2ccccc2)CC1)Nc1ncc(Br)cc1Br	14%	-1%	-4	i	-1%	-5	0.6
CC1CCC(NC(=O)CCS(=O)(=O)c2ccc3c(c2)NC(=O)CS3)CC1 (configuration not stated)	0%	3%	6	i	1%	7	0.1
Cc1cc(C(C)(C)C)c(OC(=O)[C@@H]2OC(c3ccccc3)=C[C@H]2c2ccccc2)c(C(C)(C)C)c1	-2%	17%	12	i	-2%	-22	-0.7
Cc1cc(=O)oc2cc(OCC(O)CN3CCc4ccccc4C3)ccc12 (configuration not stated)	-1%	15%	-22	i	-1%	-55*	1.3
C=CCn1c(CCNC(=O)c2ccccc2F)nnc1SCC(=O)Nc1nc2ccccc2s1	-6%	7%	5	i	0%	-10	-1.5
Cc1cc(NC(=O)CCN2CCCCC2)ccc1Br	0%	3%	-18	i	0%	-22	1.8
O=C(Nc1cccc(F)c1)c1cc(S(=O)(=O)N2CCC(C(=O)O)CC2)ccc1F	10%	-1%	0	i	0%	-6	-2.4
Cc1cccc(N(CC(=O)Nc2c(C)n(C)n(-c3ccccc3)c2=O)S(C)(=O)=O)c1C	-4%	-11%	-10	?	1%	-8	-1.1
CC1(C)NC(=O)N(CC(=O)OCC(=O)c2ccc(Br)s2)C1=O	5%	2%	7	i	?	-13	-2.2
COc1ccccc1N1CCN(CC(O)COCc2cccs2)CC1 (configuration not stated)	4%	-9%	-3	i	-4%	-62*	-3.1
C=CCc1ccc(OCCCOc2ccc(C(=O)O)cc2)c(OC)c1	9%	-5%	0	i	2%	-9	-1.9
CC(=O)COC(=O)CNC(=O)c1ccc(Br)cc1	12%	25%[57.1 µM]	3	i	-1%	5	-0.1
O=C(Nc1ccc2c(c1)Cc1ccccc1-2)c1ccc(Br)o1	13%	2%	-3	i	-8%	4	-0.8
COc1ccc(NC(=O)c2ccc(COCC(F)(F)C(F)F)cc2)cc1	-2%	7%	-4	i	-2%	1	-3.2
O=C(Nc1ccccc1C(F)(F)F)N1CCC(N2CCCCC2)CC1	3%	18%	0	i	-2%	9	-0.2
CC(C)N1C(=O)CCN(C=O)c2ccccc21	-4%	16%	3	i	-5%	-8	2.3
COCCn1c(=O)sc2ccccc2c1=O	2%	5%	1	i	0%	10	-1.7
CC1CCCCN1C(=O)COc1ccc(S(=O)(=O)N2CCCC2)cc1[N+](=O)[O-] (configuration not stated)	0%	-6%	4	i	1%	-5	1.6
Cc1ccc(S(=O)(=O)N2CCN(Cc3cc4c(cc3Br)OCCO4)CC2)cc1	8%	0%	6	i	-1%	4	-0.1
COc1ccccc1N1CCN(CC(O)COc2ccc(S(=O)(=O)N3CCOCC3)cc2)CC1 (configuration not stated)	1%	-5%	-31	i	-8%	-81*	2.6
Cc1ccc(N(CC(=O)N2CCN(Cc3ccccc3)CC2)S(C)(=O)=O)cc1C	8%	2%	-4	i	-1%	6	0.0
CC(C)NC(=O)c1ccc(COCC(F)(F)C(F)F)cc1	6%	-1%	-11	i	1%	-24	-1.7
O=C(Nc1ccccc1C(=O)N1CCCCC1)c1ccccc1C(F)(F)F	0%	9%	11	i	0%	6	-0.8
CCN(CCCNC(=O)C1CCN(S(=O)(=O)CC)CC1)c1cccc(C)c1	4%	7%	13	·	-2%	4	-2.0
CCCNc1c(NS(=O)(=O)c2ccc(Cl)s2)c(=O)oc2ccccc12	2%	-1%	3	i	1%	-5	0.7
CCOc1ccc2c(c1)/C(=C(\C(Cl)=C(Cl)Cl)[N+](=O)[O-])N2	19%	8%	1	i	0%	-29	-4.0
CCOC(=O)N1CCN(c2c(-c3ccccc3)c3cc(Cl)ccc3[nH]c2=O)CC1	-10%	-11%	1	i	0%	13	-1.7
CCCn1c(CN2CCN(C(=O)OCC)CC2)nc2cc(NC(C)=O)ccc21	5%	4%	-2	i	1%	5	-0.4
COC(=O)c1ccc(NC(=O)COc2ccc3c(c2)OCO3)cc1	4%	-8%	-5	i	1%	-14	1.6
CC1(C)CC(=O)C=C(Nc2ccc(F)cc2F)C1	-6%	9%	-2	i	1%	-19	-0.8
O=[N+]([O-])c1c(NCCO)cc(N2CCC3(CC2)OCCO3)c2nonc12	6%	-6%	-15	i	1%	-3	2.8
CC(CCc1ccccc1)NCC(O)c1cccc([N+](=O)[O-])c1 (configuration not stated)	-3%	12%	-2	i	2%	-1	-0.2
CCN(CCCNC(=O)C1CCN(S(=O)(=O)c2c(C)[nH]c(=O)[nH]c2=O)CC1)c1cccc(C)c1	-8%	3%	5	i	-1%	-20	-1.1
CCOC(=O)N1CCN(Cc2nc3cc(NC(=O)CC(C)C)ccc3n2C)CC1	13%	-1%	-2	i	-3%	-12	-1.0
CCn1ccc(C(=O)Nc2c(C)nn(Cc3c(F)c(F)c(F)c(F)c3F)c2C)n1	11%	27%	-5	i	1%	-2	0.5
O=C(CSc1nnc2c(Cl)cc(C(F)(F)F)cn12)NCc1ccc(F)cc1	1%	5%	3	i	-2%	-14	-0.1
O=C(c1ccco1)N1CCCSC1=Nc1ccccc1	2%	9%	-9	i	-1%	-11	-2.7
O=C(O)C1c2ccccc2C(=O)N(Cc2ccc(F)cc2)C1c1ccncc1 (configuration not stated)	8%	3%	0	i	0%	-8	-0.6
CC1CN=C(N(C(=O)Nc2ccccc2)C(C)c2ccccc2)S1 (configuration not stated)	6%	-19%	0	i	-3%	22	-2.9
Cc1ccc(-n2c(SCC(N)=O)nnc2-c2ccco2)cc1	9%	0%	6	i	0%	8	0.2
O=C(NCc1ccccn1)c1cc2cc(Br)ccc2oc1=O	4%	-1%	-22	i	1%	15	0.1
CC/C(CC(=O)C(F)(F)F)=N\NC(=O)/C(C#N)=C/N(C)C	3%	0%	-2	i	0%	-1	0.6
CCOc1cc(S(=O)(=O)NCc2ccc3c(c2)OCO3)c(C)cc1C	9%	-9%	-2	i	2%	15	2.4
COc1ccc(-c2nnc(S/C(=C/c3ccc(Cl)cc3)C(=O)O)o2)cc1	5%	8%	3	i	-1%	11	-3.8
Cc1cc(Cl)cc2sc(NC(=O)C3CC3)nc12	1%	13%	1	i	-1%	4	-3.9
COCCn1c(=O)c2cc3c(=O)n(CCOC)c(=O)c3cc2c1=O	-5%	8%	-6	i	-1%	?	-2.6
CCCCN(CCCC)C(=O)CSc1nnc(-c2cc(OC)c(OC)c(OC)c2)o1	-1%	-2%	14	i	-2%	18	-2.0
Cc1cc(-c2ccccc2)nc(SCc2ccc(C(=O)O)o2)n1	6%	-1%	11	i	1%	-2	0.4
Cc1c(Cl)cccc1NC(=O)CN(C1CCCCC1)S(C)(=O)=O	13%	-13%	10	i	-6%	-11	1.3
C=CCn1c(CCNC(=O)c2cccs2)nnc1SCC(=O)Nc1cccc(C(C)=O)c1	1%[15.6 µM]	2%	-12	·	-2%	-2	-2.6
O=C(CN1C(=O)C(=O)N(C2CCCC2)C1=O)NCCc1ccc(Cl)cc1Cl	14%	2%	-2	i	1%	-22	-1.6
O=c1c2oc3ccccc3c2n(Cc2ccccc2F)c(=O)n1Cc1ccc2c(c1)OCO2	·	·	6	·	·	·	·
CCOC(=O)C1CCN(c2c(N3CCN(Cc4ccccc4)CC3)c(=O)c2=O)CC1	8%	-6%	-1	i	-11%	1	-1.2
COC(=O)c1ccc(NC(=S)N2CCN(Cc3ccccc3Cl)CC2)cc1	1%	-12%	-4	i	-5%	11	-1.1
Cc1sc2nc(SCC(=O)C(C)(C)C)n(Cc3ccco3)c(=O)c2c1C	-7%	-2%	-2	i	-1%	-25	0.3

Going on with the list:
SMILES	EPAC2 agonist	EPAC2 antag	DRD3 agonist	Akt phos inh	MmCpn inh	D3 antag	CCT modulator
CC(=O)Nc1nc2c(C)cc(NC(=O)C3CCCCC3)cc2s1	-5%	2%	-3	i	-1%	11	2.2
COc1cc(C)c(Cl)c(C)c1S(=O)(=O)NCc1ccc2c(c1)OCO2	-15%	-12%	-2	i	2%	-5	-0.6
CC12CCC(C/C1=N\N=C1\NC(=O)/C(=C\c3ccc(Cl)cc3)S1)C2(C)C (configuration not stated)	-13%	-25%	8	i	0%	-6	-4.0
COc1ccc(C(=O)NNC(=O)CSc2nnc(COc3ccc4ccccc4c3)n2C)cc1	4%	-6%	-7	i	-4%	-4	1.1
COc1ccc(C(C)=O)cc1COC(=O)c1cnc(C)cn1	1%	-2%[57.1 µM]	-3	i	-1%	9	2.4
CC1CCCCC1NC(=O)Cn1cnc2ccccc2c1=O (configuration not stated)	4%	6%	3	i	-1%	6	-0.2
CCC1(CC)NC(=O)N(CC(=O)OCC(=O)Nc2cc(OC)ccc2OC)C1=O	13%	15%	1	i	-1%	-10	0.0
Cc1cc(NC(=O)C2CCCC2)n(-c2nc3ccccc3[nH]2)n1	-12%	-9%	34*	i	-1%	?	-13
CCOc1ccc(C=NC23CN4CN(CN(C4)C2)C3)cc1	7%	-3%	1	i	1%	-8	-0.6
Cc1nnc(SCC(=O)N2CC(=O)Nc3ccccc32)n1-c1ccccc1	6%	-1%	1	i	-1%	7	1.5
O=C(NCN1CCCCC1)c1cnccn1	-9%	4%[57.1 µM]	-12	i	0%	4	0.5
CC(C)(C)S(=O)(=O)N1C[C@@H]2CC/C=C\C/C(c3ccccc3)=C\2[C@H]1CCO	11%	-12%	3	i	·	8	-0.4
CCN(CCO)c1ncnc2c1sc1nc(CC(C)C)c3c(c12)CC(C)(C)OC3	-24%	-24%	7	i	1%	47	0.1
COc1ccc(CNc2cccc(F)c2)cc1Br	12%	0%	-1	i	0%	-4	-1.4
O=C(NCc1ccco1)c1ccc(COCC(F)(F)F)cc1	4%	5%	9	i	1%	7	-0.7
COc1cc(S(=O)(=O)N2CCOCC2)ccc1NC(=O)CSc1n[nH]c(=O)[nH]c1=O	10%	3%	-6	i	1%	-10	-0.8
COCCc1nc2ccc(C(=O)N(C)Cc3cccc(-n4cccn4)c3)cc2o1	5%	4%	2	i	1%	-3	0.4

An excerpt taken from the entries so far:
SMILES	EPAC2 agonist	EPAC2 antag	DRD3 agonist	Akt phos inh	MmCpn inh	D3 antag	CCT modulator
O=C(NCc1ccco1)c1ccc(COCC(F)(F)F)cc1	4%	5%	9	i	1%	7	-0.7
COc1cc(S(=O)(=O)N2CCOCC2)ccc1NC(=O)CSc1n[nH]c(=O)[nH]c1=O	10%	3%	-6	i	1%	-10	-0.8
COCCc1nc2ccc(C(=O)N(C)Cc3cccc(-n4cccn4)c3)cc2o1	5%	4%	2	i	1%	-3	0.4
